# Rango-impB inh = inhibitors of Rango-importin beta complex formation; 340,000 tested, 0.031% active; Q14974; AID 540263; Rango CFP/YFP FRET sensor + importin beta, 45 min; Potency, µM (titrated, usually from 92.2 µM), without a hit: at the top dose inhibition of complex formation; active = rising FRET ratio curve, often small or poorly fitted; inconclusive = mostly compound fluorescence or quenching in the first reads; inactive = flat curves in all reads;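 also: potency is read from the fitted curve at half-maximal effect; 0% = DMSO wells and 100% = buffer wells lacking importin beta; nearly all actives have a fitted effect of over 15% in size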
#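 FRET biosensor (snurportin 1 IBB flanked by EYFP and cerulean), 50 nM, with compound 5 min, then 0.125 microM importin beta in PBS, 1 mM DTT, 0.02% Tween-20, 0.1% BSA. CFP/YFP ratio read after 45 min at room temperature; pre-read flags interference.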
# miR-21 FLuc = miR-21 reporter, rising signal; AID 2288; Potency, µM (titrated, usually from 38.3 µM), for inactives: top-dose reporter change, positive = more light; HeLa miR-21 FLuc reporter, luciferase, 48 h; 340,000 tested, under 10 active; active = well fitted rising curve with a large enough effect; inconclusive = small, poorly fitted or top-dose-only effect; inactive = no such curve, though single readings can be large or run the other way;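 also: % of control where 0% means no effect; miR-21 action dims this reporter so a rising signal means less miR-21 action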
#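 HeLa cells endogenously expressing miR-21, stably carrying CMV-driven firefly luciferase with a downstream miR-21 binding site, 2000 cells/well. Titrations up to approximately 40 uM, 48 hours; luciferase luminescence read.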
# Rango dissoc inh = inhibition of RanGTP-driven Rango-importin beta dissociation; O95149+P62826; Biochemical FRET Rango-importin beta, RanGTP-induced dissociation; Potency, µM (top dose mostly 46.1 µM), inactives show at the highest dose activity change, negative = inhibition; 340,000 tested, 0.071% active; active means falling FRET ratio curve, often poorly fitted, with flat reads before Ran was added; inconclusive means other falling curves, or compound fluorescence or quenching; inactive means flat or rising ratio curve;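 also: potency is read from the fitted curve at half-maximal effect; % of control where 0% means no effect; nearly all actives have a fitted effect of over 45% in size; -100% = wells without RanGTP and RCC1; the record marks most hits as doubtful in a second field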
#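 Two FRET readings bracket the reaction: one 5 min after compound meets Rango–importin beta, another 45 min after RanGTP-RCC1 (0.6 uM Ran, 0.2 uM RCC1, 2 mM GTP) is added. Only the second defines inhibition.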
# GLA inh pH 4.5 = inhibitors of human alpha-galactosidase A at pH 4.5; purified enzyme, 4-MU-alpha-Gal fluorescence, pH 4.5; P06280; AID 1467; activity change, negative = inhibition, % at 105 µM; 230,000 tested, under 10 active; inconclusive = small, poorly fitted or top-dose-only inhibition, or a rising curve; inactive = flat fitted curve, though single readings scatter; no compound was filed as active;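 also: 0% = full activity with enzyme and -100% = basal without enzyme; dose as in the result columns while the protocol names 77 µM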
# Target sequence (P06280 whole entry, looked up): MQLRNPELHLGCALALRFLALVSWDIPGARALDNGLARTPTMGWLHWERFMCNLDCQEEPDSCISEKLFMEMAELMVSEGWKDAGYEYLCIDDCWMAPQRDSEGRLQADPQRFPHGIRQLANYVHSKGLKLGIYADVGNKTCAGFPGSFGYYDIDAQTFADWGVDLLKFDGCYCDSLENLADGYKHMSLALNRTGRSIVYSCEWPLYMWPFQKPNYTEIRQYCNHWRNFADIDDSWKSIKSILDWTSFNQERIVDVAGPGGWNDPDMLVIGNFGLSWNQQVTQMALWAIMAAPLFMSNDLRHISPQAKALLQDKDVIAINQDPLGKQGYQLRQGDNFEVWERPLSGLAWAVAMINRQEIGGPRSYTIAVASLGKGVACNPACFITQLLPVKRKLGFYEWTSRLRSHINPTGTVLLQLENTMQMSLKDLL
# Starred values were filed as active, the others as inactive; ? = inconclusive; · = not tested or not shown; [ ] = remark or other dose. An excerpt. The share of hits here may be higher or lower than overall.
Rango-impB inh,miR-21 FLuc,Rango dissoc inh,GLA inh pH 4.5,SMILES
-4.6%,-1%,-6%,·,Cc1cc(=O)nc2c3ccccc3n(CC(=O)NCCCN3CCOCC3)n12
5.5%,?,-7%,·,CCOc1ccccc1NC(=O)Cn1nnc(C(=O)NCc2cccs2)c1N
?,·,8%,·,COc1ccc(NC(=O)c2cc(-c3ccc(C)o3)nc3ccccc23)cc1
4.1%,4%,-9%,-6[21.1 µM],Cn1cccc1CNC(=S)Nc1cc(F)cc(F)c1
·,-6%,·,6,Cc1cnc(-c2nnc(N(C)C(=O)c3ccccn3)s2)cn1
4.6%,-3%,16%,-2,Cc1ccc(C(=O)c2ccccc2C(=O)OCC(=O)NC(C)(C)C)cc1
0.4%,-7%,-3%,10,CCOC(=O)c1nn(-c2ccccc2C)c2nc(-c3ccc(C)cc3)c(C#N)c(=O)n12
-3.2%,-3%,8%,-4,CC1(C)Cc2noc(N)c2C(C)(C)N1OC(=O)c1ccco1
4.4%,-1%,-1%,·,Cc1cc(OC(C)C(=O)NCC(O)c2ccccc2)c2c(C)c(C)c(=O)oc2c1 (centres undefined)
-0.4%,-7%,15%,-1,COC(=O)c1ccc(NC(=O)C2CCN(S(C)(=O)=O)CC2)cc1
?,-7%,-24%,·,CN1CCc2c(sc(NC(=O)c3ccc([N+](=O)[O-])o3)c2C(N)=O)C1
-1.1%,0%,4%,-5,Cc1ccccc1Nc1nc(N)nc(COC(=O)c2cccc(S(=O)(=O)NCc3ccccc3)c2)n1
-0.5%,-13%,13%,-6,N#Cc1ccccc1NC(=O)CC1CCCCC1
-4.0%,·,29%,·,Cc1ccc(-c2nc(C)sc2CC(=O)OCC(=O)Nc2ccc(F)c(Cl)c2)cc1
?,-4%,?,?,O=C(Cc1cc(=O)oc2cc(O)ccc12)NCC1CCC(C(=O)O)CC1 (centres undefined)
3.8%,-3%,11%,·,Cc1nc(-c2ccc(S(=O)(=O)N3CCOCC3)cc2)cs1
1.2%,-12%,12%,4,COc1ccccc1CN(Cc1cc2cc(C)ccc2[nH]c1=O)Cc1nnnn1CC1CCCO1 (centres undefined)
-0.7%,1%,-13%,·,O=C(NCCN1CCOCC1)c1cc(Br)ccc1Cl
-1.5%,-3%,8%,-10,CCN(C(=O)CSc1nnc(Cn2nnc3ccccc32)o1)c1nc(C)cs1
0.8%,·,-4%,·,Cn1c2c(c(=O)n1-c1ccccc1)CSCC2
-2.2%,-12%,-5%,-2,O=C(c1ccc(NC(=S)NCc2ccco2)cc1)N1CCCCC1
0.5%,4%,-13%,·,C[C@H](NC(=O)c1nc[nH]c1C(=O)NCC(=O)OCc1ccccc1)c1ccccc1
-0.1%,2%,-7%,·,CCC1COCCS(=O)(=O)N1Cc1cccc(C(F)(F)F)c1 (centres undefined)
1.5%,1%,0%,·,Cc1ccccc1N1CCN(C2CCCN(C(=O)c3snnc3C)C2)CC1 (centres undefined)
1.4%,-10%,-7%,·,O=C(CCc1ccccc1)NCc1ccc2c(c1)OCO2
-0.1%,·,4%,·,O=C(c1csc2c1CCCC2)n1cccn1
4.1%,·,-11%,·,CCN(CC)c1ccc(N)cc1
?,-1%,-9%,-3,CCOC(=O)C1=C(C)NC2=C(C(=O)CC(C)(C)C2)C1c1ccc2c(c1)CCCN2C (centres undefined)
-1.3%,-2%,16%,·,Cc1nn(C)c(C)c1CCC(=O)NC1CC(C)(C)Cc2c1cnn2-c1ccccc1 (centres undefined)
1.5%,?,-2%,-11,C[C@@H](NC(=O)OC(C)(C)C)c1nnc(S(=O)(=O)Cc2ccccc2)o1

# An excerpt of these results, as labelled records.
COc1ccc(NC(=O)c2cc(-c3ccc(C)o3)nc3ccccc23)cc1
  Rango-impB inh: ? | miR-21 FLuc: · | Rango dissoc inh: 8% | GLA inh pH 4.5: ·
Cn1cccc1CNC(=S)Nc1cc(F)cc(F)c1
  Rango-impB inh: 4.1% | miR-21 FLuc: 4% | Rango dissoc inh: -9% | GLA inh pH 4.5: -6[21.1 µM]

# Record cards, as listed above:
# `Cn1cccc1CNC(=S)Nc1cc(F)cc(F)c1` as listed: Rango-impB inh = 4.1%; miR-21 FLuc = 4%; Rango dissoc inh = -9%; GLA inh pH 4.5 = -6[21.1 µM]
# `Cc1cc(=O)nc2c3ccccc3n(CC(=O)NCCCN3CCOCC3)n12` as listed: Rango-impB inh = -4.6%; miR-21 FLuc = -1%; Rango dissoc inh = -6%; GLA inh pH 4.5 = ·
# `O=C(c1ccc(NC(=S)NCc2ccco2)cc1)N1CCCCC1` as listed: Rango-impB inh = -2.2%; miR-21 FLuc = -12%; Rango dissoc inh = -5%; GLA inh pH 4.5 = -2

# Going on with the list.
Rango-impB inh,miR-21 FLuc,Rango dissoc inh,GLA inh pH 4.5,SMILES
0.4%,-3%,-6%,-3,CC1SC(c2ccc(Cl)cc2)NC1=O (centres undefined)
-1.4%,-6%,-17%,-7,CCN1CCN(CC(=O)Nc2ccc3c(c2)OCO3)C(=O)C1=O
-0.9%,0%,-1%,-6,CC(Sc1nnc2ccccn12)C(=O)Nc1ccc(Cl)cn1 (centres undefined)
-0.5%,-6%,4%,-5,Cn1c(=O)c2c(ncn2CC(=O)OCC(=O)Nc2cc(Cl)ccc2Cl)n(C)c1=O
0.3%,-33%,5%,-8,Cc1ccc(OCCCn2c(=O)oc3ccccc32)cc1
-2.5%,-1%,6%,2,CCCCNCc1cc(OC)c(OCC(N)=O)cc1Br
-0.1%,-5%,1%,3,Cc1ccc(C2CC(c3cccc(C)c3)n3ncnc3N2)cc1 (centres undefined)
-0.7%,10%,-2%,-12,Cc1ccc([N+](=O)[O-])cc1S(=O)(=O)n1ccnc1C
-0.2%,-8%,-2%,·,CSc1ccccc1C(=O)C1CCCN(C(=O)c2cncs2)C1 (centres undefined)
4.6%,-2%,?,·,CC1CCCN(S(=O)(=O)c2ccc(C(=O)Nc3sc4c(c3C(N)=O)CCN(C)C4)cc2)C1 (centres undefined)
-2.3%,-1%,9%,2,COc1ccc(C(=O)Nc2cccc(-c3ccc4nncn4n3)c2)cc1
2.7%,-1%,1%,·,O=C(O)CSCC(=O)N1CCCN(c2nccc(C(F)(F)F)n2)CC1
-2.4%,·,-12%,·,Clc1nc(NC2CCCCC2)c2cn[nH]c2n1
-2.6%,11%,11%,1,CC1CC(C)CN(CCCNC(=O)c2csc3c2CCCC3)C1 (centres undefined)
2.1%,-16%,-11%,3,COc1cccc(OC)c1C(=O)Nc1ccc(NC(=O)c2ccco2)cc1
3.5%,-1%,-1%,-11,Cc1c(C(=O)NNc2c(Cl)cccc2Cl)n(C)oc1=O
-1.2%,·,2%,·,O=C(CSc1nnc(C2CC2)n1C1CC1)c1ccc(F)cc1
-3.3%,·,6%,·,O=C(NCC(c1cccs1)N1CCOCC1)c1cc(S(=O)(=O)N2CCOCC2)ccc1Cl (centres undefined)
5.0%,-2%,16%,-10,CCc1ccc(NC(=O)CO/N=C(\C)c2cc3ccccc3o2)cc1
0.2%,-3%,8%,-5,O=C1C(Cc2ccc(Br)cc2)SC(=Nc2ccccc2)N1c1ccccc1 (centres undefined)
-0.2%,·,-3%,·,O=S(=O)(c1ccccc1F)N1CCN(c2nc(-c3cccnc3)nc3ccccc23)CC1
0.3%,-1%,8%,0,CN(O)/C=C1\C(=O)Nc2ccccc21
0.4%,-2%,2%,-1,COc1ccc(OC)c(NC(=S)NCc2cccs2)c1
1.1%,-9%,0%,-2,O=C(Nc1ccc(NC(=O)c2ccc(S(=O)(=O)c3ccccc3)cc2)cc1)c1ccccc1
2.7%,-8%,5%,-3,O=C1NC(=O)C(CC(=O)N(Cc2cccs2)C2(C(=O)NC3CCCC3)CCCCC2)N1 (centres undefined)
-1.2%,·,17%,·,CSCCC(NC(=O)COc1ccccc1)C(=O)N1CCCC(C(F)(F)F)C1 (centres undefined)
0.0%,-36%,-4%,·,Cc1ccc(NC(=O)c2ccc(COc3ccccc3)o2)nc1
-0.1%,-8%,12%,1,Cc1ccc(OCCC(=O)Nc2ccc(F)c(Cl)c2)cc1
?,0%,-4%,·,O=C(NC1CCN(S(=O)(=O)c2ccccc2F)CC1)c1cccnc1
2.0%,0%,-6%,·,O=C(Cn1cnnn1)NCc1ccccc1

# Quoted at random: two records from the list.
Rango-impB inh,miR-21 FLuc,Rango dissoc inh,GLA inh pH 4.5,SMILES
5.0%,-2%,16%,-10,CCc1ccc(NC(=O)CO/N=C(\C)c2cc3ccccc3o2)cc1
2.7%,-1%,1%,·,O=C(O)CSCC(=O)N1CCCN(c2nccc(C(F)(F)F)n2)CC1

# 5 compounds from above with just GLA inh pH 4.5, miR-21 FLuc and Rango-impB inh.
smiles	GLA inh pH 4.5	miR-21 FLuc	Rango-impB inh
CCc1ccc(NC(=O)CO/N=C(\C)c2cc3ccccc3o2)cc1	-10	-2%	5.0%
O=C1C(Cc2ccc(Br)cc2)SC(=Nc2ccccc2)N1c1ccccc1 (centres undefined)	-5	-3%	0.2%
O=S(=O)(c1ccccc1F)N1CCN(c2nc(-c3cccnc3)nc3ccccc23)CC1	·	·	-0.2%
CN(O)/C=C1\C(=O)Nc2ccccc21	0	-1%	0.3%
COc1ccc(OC)c(NC(=S)NCc2cccs2)c1	-1	-2%	0.4%

# (list continues)
Rango-impB inh,miR-21 FLuc,Rango dissoc inh,GLA inh pH 4.5,SMILES
-3.3%,2%,5%,-2,CCOc1ccc2nc(NC(=O)C3CCCO3)sc2c1 (centres undefined)
-1.9%,-60%,-18%,·,Cc1nnc(NC(=O)c2cc3ccccc3o2)s1
0.1%,-2%,1%,-1,COc1cc(C(=S)NCc2ccccc2)cc(Br)c1O
3.4%,0%,6%,?,c1ccc2c(c1)ncc1cccn12
-0.6%,-12%,0%,-12,CN(CC(=O)Nc1ccc(N2CCOCC2)cc1)CC(=O)Nc1ccccc1[N+](=O)[O-]
-4.2%,2%,4%,-12,COc1cc(C2=Nc3ccc(Br)cc3C(c3ccccc3)N2CC(=O)NN)cc(OC)c1OC (centres undefined)
-7.6%,-3%,1%,2,CCNc1ccc(S(=O)(=O)N(C)C)cc1NCC(=O)Nc1c(F)cccc1F
?,-88%,?,-7,COc1cc(-c2cc(=O)c3ccccc3o2)ccc1O
-0.6%,-40%,-24%,10,Oc1ccccc1-c1cc(-c2ccco2)[nH]n1
-1.1%,-49%,1%,-5,O=C(CSc1nnc(-c2ccncc2)o1)Nc1ccccc1Cl
1.6%,·,2%,·,CC(C)Sc1nnc(SCC(=O)N(C)C2CCS(=O)(=O)C2)s1 (centres undefined)
-3.2%,-4%,0%,·,Cc1ccc(CNC(=O)C(CC(C)C)OC(=O)c2ccco2)cc1 (centres undefined)
-1.9%,-11%,1%,5,COc1ccc(Nc2nnc(SCC(=O)N3CC(=O)Nc4ccccc43)s2)cc1
2.0%,?,-2%,5,O=P(c1ccccc1)(c1ccccc1)c1nc(-c2ccc(Cl)cc2)oc1N1CCOCC1
-2.2%,·,-10%,·,CC(Oc1cccc(Cl)c1)C(=O)Nc1cc(S(=O)(=O)N2CCOCC2)ccc1N1CCCCC1 (centres undefined)
5.1%,?,2%,0,Cc1cc(C2=NNC(=NC3CC3)SC2)c(C)n1-c1ccccc1F
?,-5%,9%,-4,COc1ccccc1-c1nnc(NC(=O)C2=COCCO2)o1
3.2%,-14%,-4%,-4,O=C(Nc1cccc(Cl)c1)ON=C1c2ccccc2-c2ccccc21
-2.9%,-24%,-4%,0,CC(C)c1ccc(NC(=O)C(c2ccccc2)N2CCOCC2)cc1 (centres undefined)
0.6%,-3%,3%,10,Cc1cccc(C)c1NC(=O)C[N+](C)(C)CC(O)COc1cccc2ccccc12 (centres undefined)
-0.4%,0%,21%,-6,COc1cccc(CN2CCN(Cc3cc4ccccc4[nH]3)CC2CCO)c1 (centres undefined)
-1.8%,-17%,1%,-6,CSC1=NCCN1C(=O)c1ccc(C)cc1
1.9%,-3%,20%,5,CN(Cc1nc2ccc(F)cc2[nH]1)Cc1nc(CC2CC2)no1
-0.4%,-2%,0%,5,O=C1N(Cc2cccc(Cl)c2)C[C@@H]2C[C@@H](c3cccn3-c3ccccn3)N3CCC[C@@]123
-7.5%,-4%,14%,·,CCc1ccc(-c2cc(C)no2)cc1S(=O)(=O)NCCN1CCC(C)CC1
